Calb biofilm kill: mixtures killing C. albicans biofilm; inhibition, % at 7.6 µM; hit rate 0.02% among 120,000; AID 1242; C. albicans biofilm persisters + clotrimazole, fluorescence viability; primary screen in compound mixtures of four per well;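 active = inhibition above 30.3% in the primary screen of four-compound pools, then above 30% when the compound was retested; inconclusive = passed the primary limit but could not be retested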;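 note: compounds exposed to preformed 24 h biofilms for 48 h; the number belongs to the whole pool; some results filed as inactive read as strong as hits; inactives centre near 12; 0% = biofilm with clotrimazole alone and 100% = kill control; retested singly at about 60 µM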
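Probe or stimulus – Clotrimazole 50 µg/mL co-treatment · System – C. albicans biofilms · Schedule – 24 h biofilm formation, then 48 h compound exposure, 37 °C · Evaluation – percent inhibition of biofilm viability · Technique – 2-h Alamar Blue fluorescence, 535/590 nm excitation/emission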
The depositor's hits bear a star; ? = inconclusive.

Compound | Calb biofilm kill
C=C(CCC(=O)c1ccccc1)C(=O)c1ccccc1 | 12.5
O=C(COC(=O)c1cccs1)NCC1CCCCC1 | 15.0
COCCN(C(=S)Nc1c(C)cc(C)cc1C)C(C)c1cccnc1 (centres undefined) | 14.5
Cc1ccc2nc(NC(=O)C3CCCN3C(=O)OC(C)(C)C)sc2c1 (centres undefined) | -4.4
Cc1ccc(Oc2nc(CN3CCOCC3)nc3sc4c(c23)CCC(C)C4)cc1C (centres undefined) | -4.2
COc1ccc(C2=NN(C(=O)CCC(=O)O)C(c3cccs3)C2)cc1OC (centres undefined) | 7.5
O=C(C1=C[C@@H](c2ccc(Br)cc2)C[C@@H](OCCCCO)O1)N1CCN(Cc2ccc3c(c2)OCO3)CC1 | 13.1
CCn1nccc1C(=O)Nc1ccc(S(=O)(=O)NC23CC4CC(CC(C4)C2)C3)cc1 | 8.1
CCCO/N=C1/C(=O)N(c2ccccc2)c2ccccc21 | 32.1
COc1ccccc1CN1CCCC(C(=O)N2CCCCC2)C1 (centres undefined) | 17.6
COc1ccc(CCNC(=O)C(=O)Nc2ccc3nc4n(c(=O)c3c2)CCCCC4)cc1OC | 5.0
COc1cc(C(=O)NC(CCSC)C(=O)OCC(=O)NC(=O)C2CCCCC2)cc(OC)c1OC (centres undefined) | 5.9
O=C(Cc1ccc(F)cc1)N/N=C/c1ccc(-c2ccc(Cl)c(C(=O)O)c2)o1 | -0.2
O=[N+]([O-])c1cccc(-c2cn3nc(-c4ccccc4)c(-c4ccccc4)nc3n2)c1 | 9.9
CN(C)c1ccc(C=NCC2COc3ccccc3O2)cc1 (centres undefined) | 21.3
CC1=NN(c2ccccc2)C(=O)C1(C)[N+](=O)[O-] (centres undefined) | 8.6
COc1ccc(NC(=O)C(CC(C)C)NC(=O)C2CCCCC2)c(OC)c1 (centres undefined) | 15.2
CC(C)(C)C1CCC(C(=O)OCC(=O)Nc2ccc3[nH]c(=O)[nH]c3c2)CC1 (centres undefined) | 15.7
COc1ccccc1NC(=O)Nc1ccc(Cl)c(S(=O)(=O)Nc2ccccc2OC)c1 | 18.9
Cc1ccccc1NC(=O)COc1ccc2oc(=O)cc(C)c2c1 | 21.4
O=C(/C=C/c1ccccc1)Nc1nnc(SCC(=O)c2ccc3ccccc3c2)s1 | 22.7
COCC(=O)Nc1nnc(-c2ccc(C(C)(C)C)cc2)s1 | 10.2
Cc1ccc(C(=O)Nc2ccccc2C(=O)NC(Cc2ccccc2)C(=O)O)cc1 (centres undefined) | 0.7
Cn1c(Cn2nnc3ccccc32)nnc1SCC(=O)Nc1nccs1 | 27.1
Cc1ccc2nc(C)c3c(c2c1)OC(C(C)(Cl)Br)C3 (centres undefined) | 17.1
CCC(NC(C)C)C(O)c1ccc(O)c(O)c1 (centres undefined) | 4.2
O=C1CCOc2cc(OCc3ccccc3)ccc21 | 11.9
CSc1ncc(-c2ccccc2)cn1 | 4.9
CCOc1ccc(-n2nc3c(SCCN4CCCC4)nnc(C)c3c2C)cc1 | 18.8
C(=N\Nc1nc(-c2ccccn2)nc2ccccc12)/c1ccccc1 | 23.5
COc1ccc(OC)c(NC(=O)CN(Cc2ccccc2)S(C)(=O)=O)c1 | 17.4
C[C@H](NC(=O)CCCn1nnc2ccccc2c1=O)C(=O)O | 0.1
Cc1ccc(-n2c(NN)nc3ccccc3c2=O)c(C)c1 | 16.9
Cn1cccc1C(=O)OCC(=O)Nc1cccc(S(=O)(=O)N2CCOCC2)c1 | 0.2
Cc1cc(NC(=O)c2c(C)noc2C)no1 | 19.6
N#C/C(=C\c1cc(O)c(O)c(O)c1)C(N)=O | -3.3
CCOc1ccc(/C=C/C2=NNC(=O)CC2)cc1 | -0.6
COc1ccc(C(=O)COC(=O)CNC(=O)c2cccc(OC(F)F)c2)cc1 | 12.7
CCC(CC)C(=O)c1c[nH]c(C(=O)N2CCN(c3ccc(OC)cc3)CC2)c1 | 16.8
COc1cccc(C2SCC(=O)N2c2cccc(C)c2)c1OC (centres undefined) | 9.0
Cc1ccc(NS(=O)(=O)c2ccccc2[N+](=O)[O-])cc1C | 23.7
CCCCC1(C)NC(=S)N2N1C(=S)NC2(C)CCCC (centres undefined) | -0.9
CCOc1ccc(-c2cc(C(=O)OC)nc3c2c(=O)n(C)c(=O)n3C)cc1 | 20.3
Cc1cccc(C)c1Nc1c(-c2ccccn2)nc2ccccn12 | 13.8
CCCCOC(=O)Nc1ccc(S(=O)(=O)Nc2ccc([N+](=O)[O-])cc2)cc1 | 6.2
COc1cccc(CC(=O)Nc2ccccc2C(=O)N2CCOCC2)c1 | 13.3
O=C(O)C1C2CC2CN1C(=O)c1ccc(Cl)cc1Cl (centres undefined) | -1.2
COc1cc(NC(=S)NCCCN(C)C)c(OC)cc1NC(=O)c1ccco1 | 31.8
CCOC(=O)C1=C(O)CSC1=Nc1ccc(C)cc1 | 19.7
O=S(=O)(Nc1ccc(-n2cnnn2)cc1)c1ccc(F)c(F)c1F | 7.8
Cc1nn(CC(=O)NC(C)c2ccccc2)c(C)c1[N+](=O)[O-] (centres undefined) | 3.1
COc1cccc(N2C(=O)[C@H]3C(C(=O)c4cnccn4)=NN[C@H]3C2=O)c1 | 6.0
O=C(O)CCCC(=O)NCc1c(Cl)cccc1Sc1ccc(Cl)cc1 | -18.3
COc1ccc(C(=O)COC(=O)c2cccnc2Cl)c(OC)c1 | 21.7
CCNc1nc(NCC)n2c(SC(C(=O)Nc3cc(C)ccc3OC)c3ccccc3)nnc2n1 (centres undefined) | 8.8
CC1(C)Cc2c(c(-c3ccco3)nc3sc4c(NCC5CCCO5)ncnc4c23)CO1 (centres undefined) | 4.5
O=C(NC1CCCCC1)c1ccc(S(=O)(=O)N2CCCC2)cc1 | 6.9
CC(C)N(CC#CCC(O)(c1ccccc1)c1ccccc1)C(C)C | 14.0
CCN1CCCC(NC(=O)c2cc([N+](=O)[O-])ccc2OC)C1 (centres undefined) | 13.7
COc1cccc2c1OCC/C2=N\NC(=O)COc1ccc(C)cc1 | 3.6

Next section (four carried over from the part before).
Compound | Calb biofilm kill
O=C(NC1CCCCC1)c1ccc(S(=O)(=O)N2CCCC2)cc1 | 6.9
CC(C)N(CC#CCC(O)(c1ccccc1)c1ccccc1)C(C)C | 14.0
CCN1CCCC(NC(=O)c2cc([N+](=O)[O-])ccc2OC)C1 (centres undefined) | 13.7
COc1cccc2c1OCC/C2=N\NC(=O)COc1ccc(C)cc1 | 3.6
O=C(CSc1ccc2ccccc2c1)Nc1ccc(S(=O)(=O)Nc2nccs2)cc1 | 17.2
Cc1ccc(-c2[nH]ncc2/C=N/n2c(COc3ccccc3C)nc3ccccc3c2=O)cc1 | 3.8
Cc1c(NC(=O)C2CCCCC2)cc(C(=O)N2CCOCC2)cc1[N+](=O)[O-] | 22.1
Cc1ccc(C(c2nnnn2CCc2ccccc2)N2CCC(C)CC2)cc1 (centres undefined) | 14.0
CC1(C(O)(C#CC[N+]2(C)CCCCC2)c2ccccc2)CCCC1 (centres undefined) | 18.9
Cc1[nH]nc(SCC(=O)NC(C)c2ccccc2)c1[N+](=O)[O-] (centres undefined) | 8.1
CC(=O)c1cc(-c2ccccc2)n(CC(=O)N2CCCC2)c1C | 13.9
O=C(N[C@@H](Cc1ccccc1)c1nc2ccccc2[nH]1)c1cc([N+](=O)[O-])ccc1Cl | 17.2
COc1ccc(C(=O)NNC(=O)CCC(=O)Nc2cc(C)on2)cc1 | 8.4
Cc1ccc(C)c(-n2nnnc2Sc2nc([N+](=O)[O-])nn2C)c1 | 7.4
CCC(C)NS(=O)(=O)c1ccc(NC(=O)c2ccc([N+](=O)[O-])cc2Cl)cc1 (centres undefined) | 28.8
CCCCCC(=O)Nc1ccc(S(=O)(=O)Nc2ccc(Cl)nn2)cc1 | 20.4
NC(=O)CC(NC(=O)c1ccccc1)c1ccc(NCc2ccc(F)cc2)c([N+](=O)[O-])c1 (centres undefined) | 14.8
CCOC(=O)c1sc(-c2ccccc2)cc1NC(=O)c1ccc(S(=O)(=O)N(CCOC)CCOC)cc1 | 9.0
COc1ccc(C(=O)CN2C(=O)c3ccccc3S2(=O)=O)cc1 | 9.6
Cc1ccc(NC(=O)CC2NCCNC2=O)cc1Cl (centres undefined) | -0.7
CC1CCC/C(=N/Nc2nc3ccccc3s2)C1 (centres undefined) | 0.4
O=C(NNC1CC(=O)N(c2ccccc2)C1=O)c1ccc(COc2ccccc2Cl)o1 (centres undefined) | 9.1
CCCCN(CC)Cc1ccc(CNC(=S)Nc2cccc(F)c2)o1 | 11.1
C=CCNC(=O)CC1C(=O)NCCN1Cc1c(F)cccc1Cl (centres undefined) | 14.5
CSC1=C(C#N)C(c2ccncc2)C(C(=O)Nc2ccccc2)=C(C)N1 (centres undefined) | 13.3
O=C(Cn1cnc2c(nnn2Cc2ccccc2F)c1=O)NCC1CCCO1 (centres undefined) | 10.5
CN1CCN(CC(=O)Nc2cc(N3CCOCC3)ccc2[N+](=O)[O-])CC1 | 10.7
Cc1cc(NC(=S)NC(=O)C2CC2)ccc1Br | 10.4
O=C(/C=C/c1ccccc1)Nc1ccc(C(=O)N2CCCCC2)cc1 | 16.0
COc1ccc(CN(C)Cc2nc3cc(OC)c(OC)cc3c(=O)[nH]2)c(OC)c1 | 16.6
CCc1ccc(C(=O)CN2C(=O)NC(C)(CCc3ccccc3)C2=O)cc1 (centres undefined) | 11.0
COc1ccc(-c2nc(CN(C)C(C)c3ccon3)c(C)o2)c(C)c1C (centres undefined) | 2.5
COc1cc(OC)cc(C(=O)NCCC(=O)NCCc2ccc(OC)c(OC)c2)c1 | 14.3
Cc1ccc(C)c2[nH]c(=O)c(CCNC(=O)c3ccco3)cc12 | 11.6
Cc1ccc(-n2cc(C(=O)O)c(=O)cc2C)c(C)c1 | 14.5
CCCCCCCCc1c(O)nc(-n2[nH]c(C)c(CCO)c2=O)[nH]c1=O | 10.9
COc1ccc(C[C@H]2CN3C(=NC[C@@H]3Cc3ccc(O)cc3)N2CCNC(=O)c2ccc(C)c(Br)c2)cc1 | 19.3
O=C(Nc1ccc2oc(-c3ccccc3)nc2c1)C1CCCO1 (centres undefined) | 4.9
Cc1ccc(C)c(NC(=O)C2=CCN(S(=O)(=O)c3ccc(F)cc3)CC2)c1 | 2.2
O=C(Nc1ccccn1)c1csc2c1CCCC2 | 27.3
Cc1cc(NC(=O)c2c(-c3c(F)cccc3Cl)noc2C)no1 | 10.3
CC(C)CC(C(=O)NC(C)(C)C)N(Cc1cccs1)C(=O)c1snc(C(N)=O)c1N (centres undefined) | 21.6
CC(NC(=O)/C(=C/c1cccc([N+](=O)[O-])c1)NC(=O)c1ccco1)C(=O)O (centres undefined) | 12.7
COc1ccc(O)c(/C=N/NC(=O)c2c(C)nnn2-c2nonc2N)c1 | 5.0
COc1cc(C(=O)OCC(=O)N2CCCCC2C)ccc1OCc1c(C)noc1C (centres undefined) | 20.4
COc1cc(C2CC(=O)Oc3c2c(=O)n(C)c2ccccc32)cc(OC)c1OC (centres undefined) | 12.0
CN(C)/C=N/c1nc(-c2ccc3c(c2)OCO3)cs1 | 12.6
NS(=O)(=O)c1cc(C(=O)OCC(=O)c2ccc3c(c2)OCCO3)ccc1Cl | 7.5
Cc1ccnc2nc(C(=O)Nc3nc4ccccc4s3)nn12 | 19.2
COc1ccccc1NC(=S)NCCc1ccc(S(N)(=O)=O)cc1 | 8.2
O=C(Nc1cc(C(F)(F)F)ccc1Cl)C(Sc1n[nH]c(=O)[nH]c1=O)c1ccccc1 (centres undefined) | 5.8
CCN(CC)CCN1C(=O)C(=O)/C(=C(/O)c2ccc(C)cc2)C1c1cccnc1 (centres undefined) | 12.1
CSc1cccc(NC(=O)CCNC(=O)c2ccco2)c1 | 7.9
CCNC(=O)c1ccccc1-c1nc(-c2ccccc2OC)no1 | 12.7
COc1ccc(C)cc1NC(=O)C(NCC1CCCO1)c1ccccc1 (centres undefined) | 6.1
c1ccc(-c2csc(=Nc3cccnc3)n2CC2CCCO2)cc1 (centres undefined) | 9.6
CCc1ccc2c(c1)C(c1ccncc1)=NNC(c1ccccc1)=N2 | 4.1
O=C(Nc1cccc2c1C(=O)NC2=O)c1cccnc1Cl | 1.2
O=C(c1ccco1)N1CCN(S(=O)(=O)/C=C/c2ccccc2)CC1 | 12.3
O=C(NCc1ccc2c(c1)OCO2)c1ccc(CSCc2ccc(Cl)cc2)o1 | 7.0
CC1(C)COC(Cn2c3ccccc3c3ccccc32)O1 (centres undefined) | 16.1
Cc1ccc(NC(=O)c2sccc2-n2cccc2)c(Cl)c1 | 1.2
O=[N+]([O-])c1ccc(Nc2ccc(Cl)cc2)nc1 | 17.6
O=C(c1ccccc1)N1CCC(O)(c2ccc3c(c2)OCO3)CC1 | 15.0

Grouped by structure, the compounds so far with a cyano group.
Compound | Calb biofilm kill
N#C/C(=C\c1cc(O)c(O)c(O)c1)C(N)=O | -3.3
CSC1=C(C#N)C(c2ccncc2)C(C(=O)Nc2ccccc2)=C(C)N1 (centres undefined) | 13.3

Next results follow:
Compound | Calb biofilm kill
O=C(NC(=O)c1ccccc1)OCCN1C(=O)c2ccccc2C1=O | 9.6
C/C(=N\Nc1ncc(Cl)cc1Cl)c1ccccn1 | ?
Cc1ccc(C(=O)N/C(=C/c2cccs2)C(=O)NCCCn2ccnc2)cc1 | 4.1
O=C(NC(=S)NCCCN1CCOCC1)c1cccc2ccccc12 | 23.1
COc1ccc(NC(=O)Nc2ccccc2F)c(C)c1 | 22.8
O=C(CN1CCC(NC(=O)Cc2ccccc2)CC1)Nc1ccccc1Br | 3.9
Clc1ccc(Nc2c3c(nc4ncnn24)CCC3)cc1 | 24.7

High-throughput results deposited in PubChem by PCMD.

These rows are one share of the data, so the mix of outcomes need not match the whole.
